Compound activity deposited in PubChem by Vanderbilt University.
GIRK2 activ – activators of human GIRK2 potassium channels | G protein-activated inward rectifier potassium channel 2 (Homo sapiens), P48051 | HEK293-GIRK2 thallium flux, Thallos fluorescence | calls only for hits at 25 µM | 63,000 tested, 0.05% active;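 active means among the strongest 0.2% of first-round signals and kept after retests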;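 further: first round at about 10 µM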
Target sequence (P48051 whole entry, looked up): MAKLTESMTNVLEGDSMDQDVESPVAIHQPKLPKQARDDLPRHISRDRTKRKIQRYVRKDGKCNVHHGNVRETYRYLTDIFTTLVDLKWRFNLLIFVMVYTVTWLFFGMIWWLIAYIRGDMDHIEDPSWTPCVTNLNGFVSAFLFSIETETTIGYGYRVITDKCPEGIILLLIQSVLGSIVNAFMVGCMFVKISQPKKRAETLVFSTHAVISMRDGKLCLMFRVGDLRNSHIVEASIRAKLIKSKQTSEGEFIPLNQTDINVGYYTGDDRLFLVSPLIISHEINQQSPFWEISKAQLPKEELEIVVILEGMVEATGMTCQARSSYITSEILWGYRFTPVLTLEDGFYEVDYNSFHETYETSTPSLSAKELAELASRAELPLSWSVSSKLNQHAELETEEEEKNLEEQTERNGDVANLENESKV
Calls only; i = inactive. The list is partial; rates above refer to the full screens.

GIRK2 activ | Structure
i | COc1cccc(Cn2nc3nc(Nc4ccccc4C)cc(C)n3c2=O)c1
i | CCOc1cc(C)c(Cl)cc1S(=O)(=O)NCCN1CCOCC1
i | Cc1ccc(-n2ncc3c(C(C)C)nnc(SCC(=O)NCC4CCCO4)c32)cc1C (centres undefined)
i | Cc1ccc(Cn2cc(C(=O)NNC(=O)NC(C)C)ccc2=O)cc1
i | Cc1ccccc1CSC1=NCCN1S(=O)(=O)c1ccc(Br)cc1
i | COC(=O)c1ccc2c(=O)n(CCC(=O)NC3CCCC3)c(=S)[nH]c2c1
i | Cc1cc(C)cc(-n2ccn(CC(=O)Nc3cc(C)ccc3C)c(=O)c2=O)c1
i | Cc1csc(C(=O)NCC2CCN(c3ccccn3)CC2)c1
i | Cc1c(C(=O)Nc2ccc(-n3cnnn3)cc2)oc2ccccc12
i | O=C1C(=O)N(Cc2cccnc2)C(c2ccccn2)C1=C(O)c1ccccc1 (centres undefined)
i | CSc1ccc(CNC(=O)c2ccc3nc4ccccc4c(=O)n3c2)cc1
i | Cc1cc(NC(=O)CN2CCc3nc(NC(=O)c4ccoc4)sc3C2)no1
i | CC(=O)c1cccc(NC(=O)Cn2cccc(S(=O)(=O)N3CCCC3)c2=O)c1
i | CCC(=O)Oc1ccc2c(c1)O/C(=C\c1cc(Br)ccc1OC)C2=O
i | CC(C)c1ccccc1NC(=O)C1COCC(=O)N1Cc1ccccc1 (centres undefined)
i | COc1ccc(S(=O)(=O)NCC(c2cccnc2)N2CCN(c3ccc(F)cc3)CC2)cc1 (centres undefined)
i | NC(=O)CN1CC(c2nc(-c3cccc(Cl)c3)no2)C1
i | COC(=O)c1ccc(S(=O)(=O)Nc2ccc3c(c2)CN(C(C)=O)CC3)cc1
i | COc1cccc(C(=O)N2CCN(Cc3nnnn3-c3ccc(F)cc3)CC2)c1OC
i | COc1c2cc(c(O)c1OC)CCCCC(O[C@@H]1O[C@H](CO)[C@@H](O)[C@H](O)[C@H]1O)CCc1ccc(O)c-2c1 (some centres undefined)

The list continues.
GIRK2 activ | Structure
i | O=C(Nc1ccc2c(c1)OCCO2)C1(c2ccc(F)cc2)CC1
i | O=C(Cc1cccs1)N1CCN(C(=O)C2CC2c2ccc(F)cc2)CC1 (centres undefined)
i | O=C(C1CCN(c2ncnc3c2oc2ccccc23)CC1)N1CCN(c2ccccc2F)CC1
i | O=C(Nc1nc(-c2ccco2)cs1)C1COCC(=O)N1Cc1cccs1 (centres undefined)
i | CCOc1cc(NS(=O)(=O)c2cc(C)c(C)cc2OC)ncn1
i | Cc1cc(C)cc(OCC(O)CN2CCN(Cc3ccc4c(c3)OCO4)CC2)c1 (centres undefined)
i | CNC(=O)Cn1nnn(-c2ccc(NC(=O)c3cn(C)nc3OC)cc2)c1=O
i | COc1ccc(Cl)cc1NC(=O)CN1CC(c2nc(Cc3ccccc3)no2)C1
i | COC(=O)c1ccc(C(=O)NCC#CCOc2ccccc2OC)cc1
i | COCCCNC(=O)CCc1csc2nc(C)cn12
i | Cc1onc(-c2ccccc2Cl)c1C(=O)N(CC1CCCO1)c1nc2c(F)cccc2s1 (centres undefined)
i | Cc1cc(C)n(-c2ccc(=O)n(CCNC(=O)/C=C/c3ccco3)n2)n1
i | Cc1c(C)n(CC(O)CNC2CCCCC2)c2ccc(F)cc12 (centres undefined)
i | O=C(CN1C(=O)CCC1=O)NCC1(O)CCc2ccccc2C1 (centres undefined)
i | COc1cc(OC)c(NC(=O)CSc2ncnc3nc(N4CCCC(C)C4)sc23)cc1Cl (centres undefined)
i | COc1cc(OC)c(NC(=O)Cn2nc3ccc(Sc4ccc(C)cc4)nn3c2=O)cc1Cl
i | Cc1cc(C)c(S(=O)(=O)N2CCN(C(=O)c3ccco3)CC2)c(C)c1
i | N#Cc1nc(-c2ccc(S(=O)(=O)N3CCCC3)cc2)oc1NCc1ccccc1
i | CC1CCC(NC(=O)c2snc(-c3ccccn3)c2NC(=O)C(C)C)CC1 (centres undefined)
i | CCOc1ccc2cccc(NC(=O)c3cc(-c4ccco4)on3)c2n1

Further records
GIRK2 activ | Structure
i | CCCn1c(=O)c2c(nc3n2CCCCN3c2ccc(OCC)cc2)n(C)c1=O
i | COc1ccccc1CNC(=O)c1nnn(-c2ccc(C(F)(F)F)cc2)n1
i | O=S(=O)(c1ccccc1Cl)N1CCN(c2nc(N3CCOCC3)nc(-n3ccnc3)n2)CC1
i | CSc1cccc(NC(=O)CSc2nccnc2-n2nc(C)cc2C)c1
i | COc1cccc(CNC(=O)C2CCN(c3nccn4nc(-c5ccc(F)cc5)cc34)CC2)c1
i | COc1ccc(N2CCN(CC(N)=O)CC2)cc1
i | O=C(Cn1nc2c(N3CCOCC3)nccn2c1=O)NCc1cc(F)cc(F)c1
i | O=S(=O)(NCCOc1ccccc1)c1cccs1
i | C=CCn1c(=O)[nH]c2cc(C(=O)NCc3ccco3)ccc2c1=O
i | O=C(CN1CCc2nc(NC(=O)C3CC3)sc2C1)Nc1cccc(Cl)c1
i | CS(=O)(=O)NCC1CCC(C(=O)Nc2ccc3c(c2)Cc2ccccc2-3)CC1 (centres undefined)
i | CCOC(=O)N1CCC(Cn2ccnc2C(C)C)CC1
i | CCCn1cc(S(=O)(=O)c2ccc(OC)cc2)c(=O)c2cc(F)c(N3CCN(C)CC3)cc21
i | CN(C(=O)CN1N=NC2C(=O)N(c3ccc(Br)cc3)C(=O)C21)c1ccccc1 (centres undefined)
i | Cc1ccc(-n2nnc(C(=O)NCC3CCCCC3)n2)cc1
i | O=C(NCc1cccc(Cl)c1)c1ccc(-n2cccn2)nc1
i | CNC(=O)CSc1nnc(N2CCN(C(=O)/C=C/c3ccc([N+](=O)[O-])cc3)CC2)s1
i | CC(C)c1ccc(CNC(=O)Cn2cnc3c(c2=O)CN(Cc2ccccc2)CC3)cc1
i | COc1ccc(C)cc1S(=O)(=O)N1CCN(c2ccc(-c3ccccc3C)nn2)CC1
i | O=S(=O)(c1ccc2c(c1)OCCCO2)N(Cc1ccsc1)C1CC1

Carrying on:
GIRK2 activ | Structure
i | CCOC(=O)c1cnn2ccc(NC(=O)Cc3cn(C)c4ccccc34)cc12
i | Cc1nc(-c2cccc(NC(=O)Cc3csc(SCC(=O)Nc4ccc(F)cc4)n3)c2)cs1
i | Cc1nc(NCCNC(=O)c2cc(-n3cccn3)nc(C)n2)cc(N2CCOCC2)n1
i | COc1ccc(-c2noc(-c3cccn(CC(=O)NCc4ccco4)c3=O)n2)cc1OC
i | CCOc1cccc2cc(C(=O)Nc3ccc(SC)nn3)c(=O)oc12
i | Cc1cc(C)n(-c2cc(NCCNC(=O)c3cc(-n4cccn4)nc(C)n3)ncn2)n1
i | O=C(CSc1nnc2scc(-c3ccc(Cl)cc3)n12)c1ccccc1
i | COCCCn1c(-c2ccccc2F)nc2oc3ccccc3c(=O)c2c1=O
i | O=C(NCc1ccc(C(O)c2cccs2)s1)C(=O)NCc1ccccc1Cl (centres undefined)
i | COc1ccc(CCC(=O)N2CCC3(CC2)OCCCO3)cc1
i | O=C(NCc1ccc2c(c1)OCO2)c1csc(-n2cccc2)n1
i | O=c1ccc(S(=O)(=O)N2CCCCCC2)cn1Cc1c(F)cccc1Cl
i | CN1CCOc2ccc(NC(=O)/C=C/c3ccccc3Cl)cc2C1=O
i | O=C(Nc1onc2c1CSC2)c1ccc([N+](=O)[O-])o1
i | O=C(/C=C\c1ccccc1)Nc1c2c(nn1CC(=O)NCc1ccco1)CSC2
i | COc1cccc2cc(C(=O)NCCc3nc(C4CC4)cc(C(F)(F)F)n3)c(=O)oc12
i | O=C(NCCC(O)c1ccc2c(c1)OCO2)c1nc2ccccc2s1 (centres undefined)
i | Cc1cc(C)c(NC(=O)Cc2cc(=O)[nH]c(SCc3ccccc3)n2)c(C)c1
i | O=C(C1CCCCC1)N1CC(=O)N2CCc3ccccc3C2C1 (centres undefined)
i | COc1ccc2c(C)c(C(=O)NCc3cccnc3)oc2c1

Next section:
GIRK2 activ | Structure
i | O=C(NCC#CCOc1ccc2c(c1)OCO2)C1CC(=O)N(c2ccc(F)cc2)C1 (centres undefined)
i | CN1CCN(c2nnc(SCC(=O)Nc3cccc(F)c3)s2)CC1
i | CCOC(=O)c1ccccc1NC(=O)CSC1=NNC2C3CC(c4ccccc4)NN3C=CN12 (centres undefined)
i | O=C(NC1CC(=O)N(C2CC2)C1)c1ccc(OC(F)(F)F)cc1 (centres undefined)
i | CN(C)S(=O)(=O)c1ccc(C(=O)NCCn2cnc(-c3ccccc3)cc2=O)cc1
i | CN(C)C(=O)c1nnn(-c2ccc(NC(=O)COc3ccc(Cl)cc3Cl)cc2)n1
i | COc1cccc(N2CCN(S(=O)(=O)c3ccsc3C(=O)NC3CCCCC3)CC2)c1
i | O=C(C1COc2ccccc2O1)N1CCN(C(=O)C2CC2c2ccc(F)cc2)CC1 (centres undefined)
i | CCOC(=O)CCC(=O)OC1C(OC2C(C)C(OC3CC(C)(OC)C(O)C(C)O3)C(C)C(=O)OC(CC)C(C)(O)C(O)C(C)C(=O)C(C)CC2(C)O)OC(C)CC1N(C)C (centres undefined)
i | Clc1cccc(CN2CC(c3nc(-c4cccs4)no3)C2)c1
i | CSCCn1c(=NC(=O)CCS(=O)(=O)Cc2ccccc2)sc2ccccc21
i | CCn1ccc(C(=O)N2CCC(Oc3nc4c(F)cc(F)cc4s3)CC2)n1
i | CCOc1ccc(-c2noc(CN3N=NC4C(=O)N(c5ccc(C(C)C)cc5)C(=O)C43)n2)cc1OC (centres undefined)
i | O=C(Nc1ccc(Cl)c(Cl)c1)c1n[nH]n2c1nc(=O)c1ccccc12
i | CS(=O)(=O)c1ccc2nc(NC(=O)C3CSCCC(=O)N3)sc2c1 (centres undefined)
i | Cc1c(-c2nc(-c3ccccc3Cl)no2)nnn1-c1ccc(F)cc1F
i | CN(CC(=O)NCCc1cccs1)c1nc2c(C(F)(F)F)cccc2s1
i | O=C(Cn1nc(-c2cccs2)c2sc(N3CCCC3)nc2c1=O)NCc1ccc2c(c1)OCO2
i | Cc1ccc2[nH]c(C(=O)NCc3c(C)nn(C)c3C)c(NC(=O)c3ccc(Cl)cc3)c2c1
i | CC1CCN(c2nccnc2Oc2ccc(C(=O)NCc3ccc4c(c3)OCO4)cc2)CC1

Going on with the list:
GIRK2 activ | Structure
i | O=C(c1nnn(-c2ccc(F)cc2)n1)N1CCC(O)CC1
i | Cc1cc(C)c(NC(=O)C(=O)NCCc2ccc(S(N)(=O)=O)cc2)c(C)c1
i | CCC(C)n1c(C)cn2c3c(=O)n(C(C)C(C)=O)c(=O)n(C)c3nc12 (centres undefined)
i | COc1cn(C)c(C(=O)Nc2cccc(SC)c2)cc1=O
i | CC1=C(C)CC2C(=O)N(c3ccc(C)cc3)C(=O)C2C1 (centres undefined)
i | O=C(CCN1C(=O)S/C(=C/c2ccc(Cl)cc2)C1=O)Nc1ccc(C(=O)O)cc1O
i | COc1ccc(SCC2CCN(S(=O)(=O)CCN3C(=O)CCCC3=O)CC2)cc1
i | CC1(C)OCC2(CO1)CN(C(=O)c1ccc(-n3cccc3)cc1)C2
i | O=C(Nc1ccc2c(c1)OCO2)c1ccc(S(=O)(=O)N2CCCCC2)cc1
i | Cc1ccc(N2CCN(S(=O)(=O)c3ccc(F)cc3)CC2)cc1C
i | O=C(NCC1(CO)CC1)Nc1ccccc1Cl
i | Cn1c(=O)n(CC(=O)NCc2ccccc2Cl)c(=O)c2oc3ccccc3c21
i | Cc1cc(NC(=O)C(=O)NCCCN2CCCC2=O)no1
i | CCOC(=O)c1ccccc1NC(=O)COc1cc(C)nc(N2CCCCC2)n1
i | COc1ccccc1NC(=O)N1CCN(CC(=O)c2ccco2)CC1
i | COc1ccc(-c2cnc(CNC(=O)/C=C/c3ccccc3Cl)[nH]2)cc1
i | O=C(CCc1csc(NC(=O)Nc2cccc(Cl)c2)n1)NCCc1ccccc1
i | Cc1cncnc1N1CCN(C(=O)NC2CCCC2)CC1
i | CC(C)(C)Cc1nnc(C2CCCN(C(=O)C3CC3)C2)o1 (centres undefined)
i | Cc1ccc(C)c(NC(=O)CSc2nc3c(sc(=S)n3-c3ccccc3)c(=O)[nH]2)c1

Reformatted with bars between the fields: part of the list above.
Compound | GIRK2 activ
O=C(c1nnn(-c2ccc(F)cc2)n1)N1CCC(O)CC1 | i
Cc1cc(C)c(NC(=O)C(=O)NCCc2ccc(S(N)(=O)=O)cc2)c(C)c1 | i
CCC(C)n1c(C)cn2c3c(=O)n(C(C)C(C)=O)c(=O)n(C)c3nc12 (centres undefined) | i
COc1cn(C)c(C(=O)Nc2cccc(SC)c2)cc1=O | i
CC1=C(C)CC2C(=O)N(c3ccc(C)cc3)C(=O)C2C1 (centres undefined) | i
O=C(CCN1C(=O)S/C(=C/c2ccc(Cl)cc2)C1=O)Nc1ccc(C(=O)O)cc1O | i
COc1ccc(SCC2CCN(S(=O)(=O)CCN3C(=O)CCCC3=O)CC2)cc1 | i
CC1(C)OCC2(CO1)CN(C(=O)c1ccc(-n3cccc3)cc1)C2 | i
O=C(Nc1ccc2c(c1)OCO2)c1ccc(S(=O)(=O)N2CCCCC2)cc1 | i
Cc1ccc(N2CCN(S(=O)(=O)c3ccc(F)cc3)CC2)cc1C | i
O=C(NCC1(CO)CC1)Nc1ccccc1Cl | i
Cn1c(=O)n(CC(=O)NCc2ccccc2Cl)c(=O)c2oc3ccccc3c21 | i
Cc1cc(NC(=O)C(=O)NCCCN2CCCC2=O)no1 | i
CCOC(=O)c1ccccc1NC(=O)COc1cc(C)nc(N2CCCCC2)n1 | i
COc1ccccc1NC(=O)N1CCN(CC(=O)c2ccco2)CC1 | i

Further records:
GIRK2 activ | Structure
i | COC(CC(c1c(O)cc2cc(C)oc(=O)c2c1O)c1c(O)cc2cc(C)oc(=O)c2c1O)C(=O)O (centres undefined)
i | O=C(Nc1ccc(F)cc1F)C1(c2cc(-c3ccccc3)on2)CC1
i | Cc1nc(-c2ccccc2Cl)sc1CNC(=O)C1CCC(=O)N1 (centres undefined)
i | COc1ccc(/C=C/C(=O)Nc2cnc(N3CCN(c4ccccn4)CC3)nc2)cc1OC
